Screening results: PubChem BioAssay, NMMLSC
FPR: FPR binders displacing fluorescent formyl peptide, primary screen, U937-FPR cells, fMLFK-FITC, flow cytometry (AID 362). U937-FPR cells, fMLFK-FITC displacement, flow cytometry; stronger effect = higher value; test concentration not given here; most inactive calls were filed without a number and no value below 0 was filed. inhibition, %. 4,300 compounds, 1% hits;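 active = inhibition of labelled peptide binding to the formyl peptide receptor of at least 65%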;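 also: plate controls were buffer control wells for no effect and unlabeled fMLFF blocking peptide for full effect; higher means less cell fluorescence so more probe displaced; part of the set was picked by virtual screening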
The depositor's hits bear a star; i = inactive.

canonical_smiles,FPR
CCOC(=O)c1cc2c(=O)n3ccccc3nc2n(C2CCCCC2)c1=NC(=O)c1ccc(OCC)cc1,i
Cc1c(CCC(C)C)c(-n2ccnc2C)n2c(nc3ccccc32)c1C#N,i
CCC(C)OC(=O)C1=C(C)NC2=C(C(=O)C(C(=O)OC)C(C)C2)C1c1ccc(-c2ccccc2)cc1 (stereo not given),i
CC(=O)OC1CC2(C)C(=O)CCC2C2CCc3cc(O)ccc3C12 (stereo not given),i
CCC(C)C(NC(=O)C(NC(=O)OC(C)(C)C)C(C)C)C(=O)NC(CCC(=O)OCc1ccccc1)C(N)=O (stereo not given),i
COc1ccc(C2(C(=O)O)CCCC2)cc1OC,5
COc1ccccc1NC(=O)C(CC(C)C)NS(=O)(=O)c1ccc2c(c1)CCN2C(C)=O (stereo not given),i
CC(C)Cn1cc(C(=O)NCCN2CCOCC2)c2c3ccccc3n(C)c2c1=O,i
CCN(CC)CCNC(=O)c1cn(CC(C)C)c(=O)c2cc(OC)c(OC)cc12,i
CS(=O)(=O)CS(=O)(=O)C1=C(N2CCOCC2)C2CCN1CC2,i
COc1ccc(C(=O)N2CC(C)CC(C)C2)cc1OC (stereo not given),i
CC1(C)CC(=O)C2=C(C1)Nc1[nH]n(-c3ccccc3)c(=O)c1C2c1ccccc1Cl (stereo not given),71*
CC1(C)OC(=O)C(=CNC(CCCCNC(=O)OCc2ccccc2)C(=O)Nc2ccc([N+](=O)[O-])cc2)C(=O)O1 (stereo not given),23
CCc1ccc(CNC(=O)C2CCN(S(=O)(=O)N(CC(C)C)CC(C)C)CC2)cc1,i
CCOC(=O)C1CCC(CN(Cc2ccc(Cl)cc2)S(=O)(=O)c2cccc([N+](=O)[O-])c2)CC1 (stereo not given),i
COc1ccc2c(=O)c(Oc3ccccc3)c(C(F)(F)F)oc2c1C,3
O=C1/C(=C\c2ccc3c(c2)OCO3)CCC/C1=C\c1ccc2c(c1)OCO2,i
CC1=C(C(=O)OC2CCCCC2)C(c2cccc(O)c2)C2=C(CC(C)(C)CC2=O)N1 (stereo not given),20
COc1ccc(CNC(=O)C2CCC(CNS(=O)(=O)c3cccs3)CC2)cc1 (stereo not given),19
CC1(C(=O)N2CCOCC2)CCC2(C)CCC3(C)C(=CC(=O)C4C5(C)CCC(O)C(C)(C)C5CCC43C)C2C1 (stereo not given),i

canonical_smiles,FPR
CCOc1ccc(C2C(C(=O)OC(C)CC)=C(C)NC3=C2C(=O)C(C(=O)OC)C(C)C3)cc1OC (stereo not given),6
CC1CC(C)CN(C(=O)c2ccc(-c3nnc(-c4ccccc4)o3)cc2)C1 (stereo not given),i
COc1ccccc1CNC(=O)C(NS(=O)(=O)c1ccc2c(c1)CCCN2C(C)=O)C(C)C (stereo not given),i
COC(=O)C1=C(N)OC2=C(C(=O)CC(C)(C)C2)C1c1cccs1 (stereo not given),i
O=C(Oc1ccc(-c2ccccc2)cc1)c1cccc2c1NC(C(=O)O)C1CC=CC21 (stereo not given),31
CCSCCOC(=O)C1=C(C)NC2=C(C(=O)C(C(=O)OC)C(C)C2)C1c1ccc(OCc2ccccc2)cc1 (stereo not given),i
CC1(C)CC(=O)C(C=NCC2CCCO2)=C(O)C1 (stereo not given),i
COc1ccccc1-c1c(C(F)(F)F)oc2cc(O)ccc2c1=O,i
Cc1sc2ncn(CC(=O)N3CCC(Cc4ccccc4)CC3)c(=O)c2c1S(=O)(=O)N1CCC(C)CC1,i
Cc1cc(NC(=O)CSc2nc3ccccc3c(=O)n2CC2CCC(C(=O)NCCc3ccccc3)CC2)no1 (stereo not given),i
CC(=O)N1CCc2cc(S(=O)(=O)NC(CC(C)C)C(=O)N3CC(C)CC(C)C3)ccc21 (stereo not given),i
CCOc1cc(C2C3=C(CC(C)(C)CC3=O)OC3=C2C(=O)CC(C)(C)C3)ccc1OC(=O)c1ccccc1F,i
COc1cc2c(C(=O)N3CCCCCC3)cn(C)c(=O)c2cc1OC,i
CCCCC(CCC(=O)O)(C(=O)OCC)c1csc(N)n1 (stereo not given),i
O=C(O)CCNS(=O)(=O)c1ccccc1C(F)(F)F,11
O=C(O)c1cc(N2C(=O)C3C4C=CC(CC4)C3C2=O)ccc1Cl (stereo not given),i
CCSc1sccc1C1C(C#N)=C(N)N(c2ccccc2[N+](=O)[O-])C2=C1C(=O)CC(C)(C)C2 (stereo not given),i
O=C1C2C3C=CC(C3)C2C(=O)N1c1ccc(NC2CCCCCC2)c([N+](=O)[O-])c1 (stereo not given),i
O=C1CCC(C(=O)N(Cc2cccs2)C2(C(=O)NC3CCCC3)CCCCC2)N1 (stereo not given),i
Cc1sc2ncn(CC(=O)NCCCN3CC(C)CC(C)C3)c(=O)c2c1S(=O)(=O)N1CCC(C)CC1 (stereo not given),i

canonical_smiles,FPR
COc1ccc(NC(=O)CCCCCn2c(SCC(=O)NCc3ccco3)nc3ccsc3c2=O)cc1,0
CN1CCN(Cc2c(O)ccc3c4c(c(=O)oc23)CCC4)CC1,i
CCOc1ccc2c(=O)c(-c3ccccc3OC)c(C(F)(F)F)oc2c1,i
CC(C)C(C(=O)OCC(=O)c1ccc(Cl)cc1)N1C(=O)C2C3CCC(C3)C2C1=O (stereo not given),35
COc1ccc(Br)cc1C1C2=C(CC(C)(C)CC2=O)Nc2nc3ccccc3n21 (stereo not given),14
CC(=O)N1CCc2cc(S(=O)(=O)NC(C(=O)NCc3ccccc3Cl)C(C)C)ccc21 (stereo not given),i
CCOc1cc(C2C(C(=O)OC(C)C)=C(C)NC3=C2C(=O)C(C(=O)OC)C(C)C3)cc(Cl)c1O (stereo not given),i
COc1ccccc1NS(=O)(=O)CC12CCC(CC1=O)C2(C)C (stereo not given),i
NC(=O)CSc1nnnn1C1CCCCC1,i
COCCOC(=O)C1=C(C)NC2=C(C(=O)C(C(=O)OC)C(C)C2)C1c1cccc(F)c1 (stereo not given),6
CCOCCOC(=O)C1=C(C)NC2=C(C(=O)C(C(=O)OC)C(C)C2)C1c1cccc(F)c1 (stereo not given),6
CC(=O)N1c2ccc(S(=O)(=O)NC3CCCC3)cc2CC1C (stereo not given),i
CCOC(=O)C1=C(C)NC2=C(C(=O)C(C(=O)OC)C(C)C2)C1c1ccc([N+](=O)[O-])cc1 (stereo not given),3
COC(=O)c1c(-c2cc(C)ccc2C)csc1NC(=O)C1CCCCC1C(=O)O (stereo not given),40
CCCCn1c(CN2CCN(C(=O)c3ccco3)CC2)nc2c1c(=O)n(C)c(=O)n2C,i
CC1CCCN(C(=O)c2ccc3c(c2)C(=O)N(CCC2=CCCCC2)C3=O)C1 (stereo not given),8
COc1cc(CCN2C(=O)c3cccc4cccc(c34)C2=O)c(S(=O)(=O)N2CCCCCC2)cc1OC,i
CCN(C(=O)c1cccc(F)c1)c1ccc(C(O)(C(=O)OC)C(F)(F)F)cc1 (stereo not given),85*
CC1=CC(C)(C)N(C(=O)Nc2ccccc2)c2ccc(OC(=O)Nc3ccccc3)cc21,i
O=C(O)CN1C(=O)CSc2ccc(S(=O)(=O)N3CCCCCC3)cc21,i

canonical_smiles,FPR
CCC(C)OC(=O)C1=C(C)NC2=C(C(=O)C(C(=O)OC)C(C)C2)C1c1cccc(F)c1 (stereo not given),1
CC(=O)Nc1ccc(S(=O)(=O)NCC2CCC(C(=O)N3CCN(c4cc(C)ccc4C)CC3)CC2)cc1 (stereo not given),i
CCOc1ccc(N2C(=O)CC(NC3CCCCNC3=O)C2=O)cc1 (stereo not given),i
Cc1sc2ncn(CC(=O)Nc3ccc(C(C)C)cc3)c(=O)c2c1S(=O)(=O)N1CCC(C)CC1,i
O=[N+]([O-])c1ccc2c(c1)C=C1CCCCC1(N1CCCCC1)O2 (stereo not given),i
COc1ccc(C(CC(=O)NCC2(c3ccc(OC)c(OC)c3)CCCC2)c2ccccc2)cc1 (stereo not given),10
CCC(C)OC(=O)C1=C(C)NC2=C(C(=O)C(C(=O)OC)C(C)C2)C1c1ccc(N(C)C)cc1 (stereo not given),6
O=C1C2C3CC(C2C(=O)N1c1ccc(Cl)cc1)C1C(c2ccc(O)cc2)c2sc(=O)[nH]c2SC31 (stereo not given),i
CCSCCOC(=O)C1=C(C)NC2=C(C(=O)C(C(=O)OC)C(C)C2)C1c1ccc(OC)c(Br)c1 (stereo not given),11
COc1ccc(C2C(C(=O)OC3CCCCC3)=C(C)NC3=C2C(=O)CC(c2ccccc2)C3)cc1OC (stereo not given),31
CCOC(=O)CSc1nc2c(c(=O)n1CC1CCCC1)C1(CCCCC1)Cc1ccccc1-2,6
O=C(CSc1nc2ccccc2c(=O)n1CC1CCC(C(=O)NCc2ccco2)CC1)NC1CCCC1 (stereo not given),3
CC(=O)OC1CCC2(C)C(CCC3C2CCC2(C)C3CC(O)C2(O)C(C)=O)C1 (stereo not given),i
CCCCC(CC)CNS(=O)(=O)c1ccc(OCC)c2ncccc12 (stereo not given),i
CCC(C)C(C(=O)Nc1sc2c(c1C#N)CCCCC2)N1C(=O)c2ccccc2C1=O (stereo not given),i
CCCCCCc1cc2c3c(c(=O)oc2cc1OCC(=O)O)CCCC3,48
COC(=O)c1nc2n(n1)C(c1ccc(OC)cc1)C(C(=O)OC1CCCCC1)=C(C)N2 (stereo not given),i
COC(=O)c1ccc(NC(=O)C23CC4CC(C2)CC(n2cncn2)(C4)C3)cc1,5
CCOc1cc(C2C3=C(CC(C)(C)CC3=O)OC3=C2C(=O)CC(C)(C)C3)cc(Br)c1OC,4
CCC(C)NC(=O)CSc1c2c(nc3ccccc13)CCCC2 (stereo not given),i

Molecules listed so far with an NH in an aromatic ring (2):
canonical_smiles,FPR
CC1(C)CC(=O)C2=C(C1)Nc1[nH]n(-c3ccccc3)c(=O)c1C2c1ccccc1Cl (stereo not given),71*
O=C1C2C3CC(C2C(=O)N1c1ccc(Cl)cc1)C1C(c2ccc(O)cc2)c2sc(=O)[nH]c2SC31 (stereo not given),i

(next part)
canonical_smiles,FPR
N#CC1=C(NC(=O)Cc2ccccc2[N+](=O)[O-])CCC1,i
CCOC(=O)C1=C(C)NC2=C(C(=O)C(C(=O)OC)C(C)C2)C1c1ccc(O)c(OC)c1 (stereo not given),i
CCOC(=O)C(CC)Oc1ccc2c(C(F)(F)F)cc(=O)oc2c1 (stereo not given),4
Cc1ccc(C(=O)COC(=O)c2cccc(N3C(=O)C4C5CCC(C5)C4C3=O)c2)cc1[N+](=O)[O-] (stereo not given),i
Cc1cccc(Oc2c(C(F)(F)F)oc3c(CN4CCC(C)CC4)c(O)ccc3c2=O)c1,i
CCCCn1c(=NC(=O)c2ccc3c(c2)OCO3)c(C(=O)OCC)cc2c(=O)n3ccccc3nc21,i
COc1ccc(C2C(C(=O)OC3CCCCC3)=C(C)NC3=C2C(=O)CC(C)(C)C3)cc1OC (stereo not given),11
CCC(C)OC(=O)C1=C(C)NC2=C(C(=O)C(C(=O)OC)C(C)C2)C1c1cc(OC)ccc1OC (stereo not given),17
COC(=O)C1C(=O)C2=C(CC1C)NC(C)=C(C(=O)OC1CCCCCC1)C2c1ccc(O)cc1 (stereo not given),8
CCCc1cc(=O)[nH]c(SCC(=O)Nc2cccc(F)c2)n1,21
CN(C(=O)c1ccccn1)C1(C(=O)NC2CCCC2)CCCCC1,i
COc1cc2c(C(=O)N3CCCC(C)C3)cn(CC(C)C)c(=O)c2cc1OC (stereo not given),i
CCC1CCCCN1CCCNC(=O)c1cn(CC(C)C)c(=O)c2cc(OC)c(OC)cc12 (stereo not given),i
COc1ccc2c(C(F)(F)F)cc(=O)oc2c1,i
CC1(C)CC(=O)C2=C(C1)OC(N)=C(C#N)C2c1c(F)c(F)c(F)c(F)c1F (stereo not given),i
CC(=O)Nc1ccc(S(=O)(=O)NCC2CCC(C(=O)N3CCc4ccccc4C3)CC2)cc1 (stereo not given),i
COc1cc([N+](=O)[O-])cc2c1OC1(C=Cc3c(ccc4ccccc34)O1)C(C)=C2 (stereo not given),1
C#CCSc1nc2c(c(=O)n1C1CCOC(C)(C)C1)C1(CCCC1)Cc1ccccc1-2 (stereo not given),i
CC(C)Cn1c(CN2CCN(C)CC2)nc2c1c(=O)n(C)c(=O)n2C,i

Pulled by structure from the entries so far (five):
canonical_smiles,FPR
CCOC(=O)C(CC)Oc1ccc2c(C(F)(F)F)cc(=O)oc2c1 (stereo not given),4
CCC1CCCCN1CCCNC(=O)c1cn(CC(C)C)c(=O)c2cc(OC)c(OC)cc12 (stereo not given),i
COc1cc2c(C(=O)N3CCCC(C)C3)cn(CC(C)C)c(=O)c2cc1OC (stereo not given),i
CCCc1cc(=O)[nH]c(SCC(=O)Nc2cccc(F)c2)n1,21
COc1cc([N+](=O)[O-])cc2c1OC1(C=Cc3c(ccc4ccccc34)O1)C(C)=C2 (stereo not given),1

Shown as a hit in FPR, among the entries above:
canonical_smiles,FPR
CC1(C)CC(=O)C2=C(C1)Nc1[nH]n(-c3ccccc3)c(=O)c1C2c1ccccc1Cl (stereo not given),71*
CCN(C(=O)c1cccc(F)c1)c1ccc(C(O)(C(=O)OC)C(F)(F)F)cc1 (stereo not given),85*

Only part of the results is shown (hit frequency here may not be typical).
